Assay outcomes as filed in PubChem BioAssay.
DUX4 inh – DUX4-mediated transcription inhibition; 293T-iDUX4 ZSCAN4-Gaussia luciferase reporter, 24 h; stronger effect = lower value; 37,000 compounds, 0.8% hits; activity change, negative = inhibition, % (concentration not given with the values);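 active = -10% or lower and over 25 points stronger than a control reporter; inconclusive = -10% or lower with a smaller gap; inactive = above -10%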;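 also: 0% = median of neutral control wells and -100% = median of positive control wells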
DUX4 inh difference – also measured in DUX4 inh; calls as there; Gaussia minus Italica difference, %; measured here: selective DUX4 reporter inhibition;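 worked out from the two reporters; negative = selective loss of the DUX4 reporter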
DUX4 inh control – further read-out of DUX4 inh, marked with its call; activity change, negative = inhibition, %; measured here: Italica tet-on control reporter;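 0 = neutral control and -100 = positive control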
An asterisk follows results filed as active; ? = inconclusive; / = not tested or not shown; & = joins results of further samples. Only part of the results is shown; the hit share may differ from the screen's.

SMILES | DUX4 inh | DUX4 inh difference | DUX4 inh control
C[C@@H]1CN([C@@H](C)CO)C(=O)CCCn2nncc2CO[C@H]1CN(C)C(=O)Nc1ccccc1F | -5 | -6 | 0.8
O=C([C@H]1[C@H](CO)[C@H]2Cn3c(ccc(C4=CCCC4)c3=O)[C@H]2N1CC1CC1)N1CCCCC1 | -2 | -3 | 1.0
CN1CCN(C(=O)C[C@@H]2CC[C@H]3[C@@H](COC[C@@H](O)CN3Cc3ccc(Oc4ccccc4)cc3)O2)CC1 | ? | / | /
CO[C@H]1CN(C)C(=O)c2cc(NC(=O)CC(F)(F)F)ccc2OC[C@@H](C)N(S(=O)(=O)c2cn(C)cn2)C[C@@H]1C | 8 | 3 | 5.4
CN1[C@@H]2c3ccc(-c4cccc(F)c4)c(=O)n3C[C@H]1[C@H](CO)[C@H]2C(=O)N1CCOCC1 | -1 | -3 | 1.9
C[C@H](CO)N1C[C@H](C)[C@H](CN(C)C(=O)Nc2ccc(F)cc2)Oc2ncc(-c3cc4ccccc4o3)cc2C1=O | -4 | -2 | -1.9
CO[C@@H]1CN(C)C(=O)c2ccc(NC(C)=O)cc2OC[C@H](C)N(Cc2cccc(F)c2)C[C@H]1C | 3 | -1 | 4.2
Cc1cccc(S(=O)(=O)N[C@@H]2CC[C@H](CCNC(=O)Nc3cc(F)ccc3F)O[C@@H]2CO)c1 | 0 | -3 | 3.3
CN1C(=O)c2cc(NC(=O)Cc3ccccc3)ccc2OC[C@H]2O[C@@H](CC(=O)NC3CCC3)CC[C@H]21 | -2 | -3 | 0.9
O=C(NC[C@H]1N[C@H](CO)[C@@H]1c1ccc(-c2ccccc2)cc1)C1CCC1 | 0 | 0 | -0.6
CN1C(=O)c2cc(NS(C)(=O)=O)ccc2OC[C@@H]2O[C@@H](CC(=O)O)CC[C@H]21 | -4 | -2 | -2.6
O=C(C[C@@H]1C[C@H]2c3cc(NC(=O)CC4CC4)ccc3O[C@H]2[C@H](CO)O1)NCc1ccc(Cl)cc1 | -2 | -1 | -1.0
C[C@H](O)C#Cc1ccc([C@@H]2[C@@H](CO)N3CCCCN(C(=O)c4ccncc4)C[C@H]23)cc1 | 21 | 3 | 17
COCC(=O)N1CC(=O)N2[C@H](C1)[C@H](c1ccc(-c3ccccc3F)cc1)[C@@H]2CO | 7 | 1 | 5.1
CCC(=O)N(CC(C)C)C[C@@H]1[C@@H](c2ccccc2)[C@@H](CO)N1S(C)(=O)=O | -2 | 0 | -2.0
CCCNC(=O)N1CC(=O)N2[C@@H](CO)[C@H](c3ccc(C#CCC4CCCC4)cc3)[C@@H]2C1 | -1 | -9 | 7.8
COC(=O)C[C@@H]1C[C@H]2c3cc(N(C)C)ccc3O[C@H]2[C@H](CO)O1 | 2 | 0 | 2.6
O=C(NC1CCCCC1)[C@H]1[C@H](CO)[C@H]2Cn3c(cccc3=O)[C@H]2N1C(=O)CC1CC1 | -5 | -3 | -1.5
O=C(CN1CCOCC1)N1CC(=O)N2[C@H](C1)[C@H](c1ccc(/C=C/c3ccccc3)cc1)[C@@H]2CO | 1 | -3 | 3.7
CC=Cc1ccc2n(c1=O)C[C@@H]1[C@@H](CO)[C@H](C(=O)N[C@@H](C)c3ccccc3)[C@H]2N1Cc1cncnc1 (mixture of isomers) | 8 | 5 | 2.8

Looked up by structure from the list above:
SMILES | DUX4 inh | DUX4 inh difference | DUX4 inh control
O=C(NC1CCCCC1)[C@H]1[C@H](CO)[C@H]2Cn3c(cccc3=O)[C@H]2N1C(=O)CC1CC1 | -5 | -3 | -1.5
CCCNC(=O)N1CC(=O)N2[C@@H](CO)[C@H](c3ccc(C#CCC4CCCC4)cc3)[C@@H]2C1 | -1 | -9 | 7.8
CN1C(=O)c2cc(NS(C)(=O)=O)ccc2OC[C@@H]2O[C@@H](CC(=O)O)CC[C@H]21 | -4 | -2 | -2.6

Some values from the entries so far.
C[C@H](O)C#Cc1ccc([C@@H]2[C@@H](CO)N3CCCCN(C(=O)c4ccncc4)C[C@H]23)cc1 in DUX4 inh control = 17
CCCNC(=O)N1CC(=O)N2[C@@H](CO)[C@H](c3ccc(C#CCC4CCCC4)cc3)[C@@H]2C1 in DUX4 inh = -1
COC(=O)C[C@@H]1C[C@H]2c3cc(N(C)C)ccc3O[C@H]2[C@H](CO)O1 in DUX4 inh control = 2.6

(cont.)
SMILES | DUX4 inh | DUX4 inh difference | DUX4 inh control
N#C[C@H]1[C@@H](c2ccccc2-c2ccccc2F)[C@H](CO)N1C(=O)c1ccccn1 | 11 | 8 | 3.2
CC(C)CC#Cc1ccc([C@@H]2[C@H](CO)N3CCCCN(C(=O)NC4CCCC4)C[C@@H]23)cc1 | -1 | -18 | 17
CC=Cc1ccc2n(c1=O)C[C@H]1[C@H](CO)[C@@H](C(=O)N(C)C)[C@@H]2N1Cc1cc(F)ccc1F (mixture of isomers) | -3 | 0 | -2.7
COc1ccc(C(=O)N2C[C@@H]3[C@H](c4ccccc42)[C@@H](CO)N3C(=O)NC(C)C)cc1 | 2 | 0 | 1.6
CCCC#Cc1ccc([C@H]2[C@@H](CO)N3C(=O)CN(C(=O)c4ccncc4)C[C@H]23)cc1 | 15 | 10 | 4.7
N#C[C@H]1[C@@H](c2ccc(C3=CCCCC3)cc2)[C@H](CO)N1S(=O)(=O)c1ccccc1 | -4 | -4 | 0.1
CCN1[C@@H]2c3ccc(-c4cccc(F)c4)c(=O)n3C[C@@H]2[C@@H](CO)[C@@H]1C(=O)OC | -2 | -2 | 0.1
COc1ccc2c3c([nH]c2c1)[C@H](CO)N(C(=O)c1cnccn1)CC31CCN(C(=O)c2cnccn2)CC1 | 13 | 6 | 7.7
C/C=C/c1ccc(C2[C@H]3CNC[C@@H]2N3Cc2cccc(F)c2)cc1 (stereo partly drawn) | 10&6 | 4&4 | 6.4&2.5
CN1C(=O)c2cc(NS(=O)(=O)c3ccc(F)cc3)ccc2OC[C@H]2O[C@@H](CC(=O)Nc3cccc4ccccc34)CC[C@@H]21 | 5 | 4 | 0.4

A different layout for part of the listing above:
mol: N#C[C@H]1[C@@H](c2ccc(C3=CCCCC3)cc2)[C@H](CO)N1S(=O)(=O)c1ccccc1
  DUX4 inh: -4 | DUX4 inh difference: -4 | DUX4 inh control: 0.1
mol: CCN1[C@@H]2c3ccc(-c4cccc(F)c4)c(=O)n3C[C@@H]2[C@@H](CO)[C@@H]1C(=O)OC
  DUX4 inh: -2 | DUX4 inh difference: -2 | DUX4 inh control: 0.1
mol: COc1ccc2c3c([nH]c2c1)[C@H](CO)N(C(=O)c1cnccn1)CC31CCN(C(=O)c2cnccn2)CC1
  DUX4 inh: 13 | DUX4 inh difference: 6 | DUX4 inh control: 7.7
mol: C/C=C/c1ccc(C2[C@H]3CNC[C@@H]2N3Cc2cccc(F)c2)cc1 (stereo partly drawn)
  DUX4 inh: 10&6 | DUX4 inh difference: 4&4 | DUX4 inh control: 6.4&2.5

Following part
SMILES | DUX4 inh | DUX4 inh difference | DUX4 inh control
CN1C(=O)c2cc(NS(=O)(=O)c3ccc(F)cc3)ccc2OC[C@H]2O[C@H](CC(=O)NCC(F)(F)F)CC[C@H]21 | -3 | -3 | 0.1
CC(C)NC(=O)N[C@@H]1CC[C@@H](CCNC(=O)C2CCOCC2)O[C@@H]1CO | 1 | -1 | 1.8
C[C@H]1CN([C@@H](C)CO)C(=O)CCCn2nncc2CO[C@H]1CN(C)C(=O)Nc1ccnc(N2CCOCC2)c1 | 2 | -9 | 11
CO[C@@H]1CN(C)C(=O)c2cc(NS(C)(=O)=O)ccc2OC[C@H](C)N(Cc2cncnc2)C[C@@H]1C | 5 | 1 | 3.8
O=C(Nc1ccc(F)cc1)N1[C@@H]2CNc3ccccc3[C@@H]2[C@@H]1CO | -1 | 1 | -1.9
COc1ccc(-c2ccccc2[C@@H]2[C@@H](C#N)N(C(=O)c3cccnc3)[C@@H]2CO)cc1 | 1 | -5 | 6.0
CCC(=O)N1CC2(CCN(C(=O)Nc3ccc(F)cc3)CC2)c2c([nH]c3cc(OC)ccc23)[C@H]1CO | 14 | 15 | -1.2
C[C@H](CO)N1C[C@H](C)[C@H](CN(C)S(=O)(=O)c2ccc(F)cc2)OCc2cn(nn2)CCCC1=O | 1 | 4 | -2.7
CCC(=O)N1[C@H](CO)[C@@H](c2ccccc2)[C@@H]1CN(C)C(=O)c1ccccc1F | -1 | -4 | 2.0
C[C@H](CO)N1C[C@H](C)[C@H](CN(C)S(=O)(=O)c2ccc3ccccc3c2)OCc2cnnn2CCCC1=O | 2 | 7 | -5.0
COCC(=O)N1[C@@H](C#N)[C@H](c2ccccc2-c2cccc(F)c2)[C@@H]1CO | 6 | -3 | 8.7
O=C(C[C@@H]1CC[C@H](NS(=O)(=O)c2ccc(F)cc2)[C@@H](CO)O1)NC1CCCCC1 | 2 | 1 | 1.2
Cc1noc(C)c1NC(=O)NCC[C@H]1CC[C@@H](NC(=O)Cc2cccnc2)[C@@H](CO)O1 | 9 | 9 | -0.6
C[C@@H]1CN([C@H](C)CO)C(=O)CCCn2cc(nn2)CO[C@H]1CN(C)C(=O)Nc1ccc(C(C)(C)C)cc1 | 3 | 1 | 2.3
C[C@H](NC(=O)C[C@@H]1CC[C@@H]2[C@H](COC[C@H](O)CN2C)O1)c1ccccc1 | 9 | 8 | 1.3
COCc1cn(CC[C@H]2CC[C@H](NC(=O)c3ccc(F)cc3)[C@@H](CO)O2)nn1 | 4 | 2 | 2.0
CO[C@@H]1CN(C)C(=O)c2cc(NS(C)(=O)=O)ccc2OC[C@@H](C)N(C(=O)NC(C)C)C[C@H]1C | 7 | 2 | 5.1
CN1CCN(C(=O)C[C@@H]2C[C@@H]3c4cc(NC(=O)Cc5ccncc5)ccc4O[C@@H]3[C@@H](CO)O2)CC1 | -5 | -5 | 0.4
OC[C@@H]1[C@@H](c2ccc(Br)cc2)[C@@H]2CN(Cc3cncnc3)CCCCN12 | 5 | 5 | -0.2
CC(C)NC(=O)N1[C@H](CO)[C@@H](c2ccccc2)[C@H]1CN(C)C(=O)c1cccnc1 | -3 | -3 | 0.9

Single records, as listed above. Values in the order: DUX4 inh, DUX4 inh difference, DUX4 inh control
C[C@@H]1CN([C@H](C)CO)C(=O)CCCn2cc(nn2)CO[C@H]1CN(C)C(=O)Nc1ccc(C(C)(C)C)cc1 is entered as 3, 1, 2.3
CCC(=O)N1[C@H](CO)[C@@H](c2ccccc2)[C@@H]1CN(C)C(=O)c1ccccc1F is entered as -1, -4, 2.0

Next section:
SMILES | DUX4 inh | DUX4 inh difference | DUX4 inh control
N#C[C@H]1[C@@H](c2ccc(C3=CCCCC3)cc2)[C@H](CO)N1C(=O)NC1CCCC1 | -2 | 0 | -2.1
COC(=O)C[C@@H]1CC[C@H]2[C@@H](COc3ccc(NC(=O)c4ccc(OC)cc4)cc3C(=O)N2C)O1 | -2 | -2 | 0.0
CN(C)CCCNC(=O)C[C@@H]1CC[C@H]2[C@H](COc3ccc(NC(=O)NC4CCCC4)cc3C(=O)N2C)O1 | 0 | 1 | -0.5
CCCNC(=O)N1CC2(CN(CC3CCCCC3)C2)c2c(n(C)c3cc(OC)ccc23)[C@@H]1CO | ? | / | /
C[C@H]1CN([C@@H](C)CO)C(=O)Cc2cc(NC(=O)Cc3cn(C)c4ccccc34)ccc2O[C@H]1CN(C)Cc1ccc(C(F)(F)F)cc1 | 0 | 0 | 0.2
O=C(C[C@H]1CC[C@@H]2[C@H](COC[C@@H](O)CN2C(=O)c2cnccn2)O1)NCc1ccc(Cl)cc1 | 5 | 2 | 3.1
OC[C@H]1[C@@H](c2ccccc2)C2(CN(Cc3nccs3)C2)N1Cc1cc(F)ccc1F | ? | / | /
C[C@@H](NC(=O)C[C@@H]1CC[C@H]2[C@@H](COC[C@H](O)CN2Cc2ccc(C(F)(F)F)cc2)O1)c1ccccc1 | ? | / | /
O=C(C[C@H]1CC[C@@H]2[C@H](COC[C@H](O)CN2CCc2ccccc2)O1)NCc1ccc(F)cc1 | ? | / | /
Cc1noc(C)c1S(=O)(=O)Nc1ccc2c(c1)C(=O)N([C@@H](C)CO)C[C@@H](C)[C@H](CN(C)C(=O)c1ccncc1)OCCCC[C@@H](C)O2 | 1 | -4 | 4.6
CC=Cc1ccc2n(c1=O)C[C@@H]1[C@@H](CO)[C@H](C(=O)NCCC)N(C(=O)CC3CC3)[C@H]21 (mixture of isomers) | 3 | 3 | -0.3
N#C[C@@H]1[C@H](c2ccccc2C2=CCCC2)[C@H](CO)N1C(=O)Cc1ccncc1 | -1 | -7 | 6.0
CCCC#Cc1cnc2c(c1)C(=O)N([C@@H](C)CO)C[C@@H](C)[C@@H](CN(C)C(=O)Nc1cc(F)ccc1F)O2 | -5 | -7 | 2.1
O=C(Nc1cccc(Cl)c1)N1C[C@H]2[C@@H](c3ccccc31)[C@@H](CO)N2C(=O)c1cccnc1 | 2 | 0 | 2.5
N#C[C@H]1[C@H](c2ccc(C#Cc3ccc(F)cc3)cc2)[C@H](CO)N1C(=O)Nc1ccc(F)cc1 | -3 | -2 | -0.3
COC(=O)C[C@H]1CC[C@H]2[C@H](COc3ccc(NC(=O)c4ccccc4F)cc3C(=O)N2C)O1 | 1 | 3 | -1.7
COC(=O)[C@H]1[C@H](CO)[C@H]2Cn3c(ccc(C4=CCCCC4)c3=O)[C@H]2N1CC1CCCCC1 | ? | / | /
COc1ccc2c3c(n(C)c2c1)[C@@H](CO)N(C(=O)Cc1ccccn1)CC31CN(C)C1 | 15 | -1 | 15
C/C=C/c1ccc([C@@H]2[C@H](CO)N(C(=O)C3CCOCC3)C23CN(C(=O)NC(C)C)C3)cc1 | 5 | -2 | 6.5
Cc1ccccc1S(=O)(=O)N1C[C@H]2[C@@H](c3ccccc31)[C@@H](CO)N2C(=O)CC1CC1 | 0 | 2 | -1.9
CC=Cc1ccc2n(c1=O)C[C@@H]1[C@@H](CO)[C@H](C(=O)NCCCN(C)C)[C@H]2N1C(=O)c1ccccc1 (mixture of isomers) | 1 | 0 | 0.9
CC(=O)N1CC[C@@H]2[C@H](CO)Nc3ccc(C#Cc4cccnc4)cc3[C@@H]21 | 1 | -11 | 12
